# CSC inhib = cancer stem cell inhibition | cancer stem cell-like cells viability, luminescence | inhibition, % at 7.5 µM | hit rate 1.1% among 300,000;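 active means mean at 75% or more and at least half the replicates too; inconclusive means mean and replicates disagree; tested in HMLE shEcad cells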;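 further: 0% = median of negative and 100% = median of positive control wells; the first replicate is given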
# PABP FP inh = blocks human PABP binding to poly(A) RNA; P11940; fluorescence polarization; inhibition, % at 35 µM; hit rate 1% among 290,000;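 active means 50% or more with normal probe brightness, or confirmed in later tests; inconclusive means above 50% with abnormal brightness, or retests that disagree; inactive means below 50% or failed in later tests; about a fifth of its hits are not listed in these tables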;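 further: calls also rest on retests at 20 µM and on dose response follow-up; controls were probe without protein and protein plus probe with vehicle; some compounds called inactive have numbers as strong as hits; many hits fall short of the cut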
# Target sequence (P11940 whole entry, looked up): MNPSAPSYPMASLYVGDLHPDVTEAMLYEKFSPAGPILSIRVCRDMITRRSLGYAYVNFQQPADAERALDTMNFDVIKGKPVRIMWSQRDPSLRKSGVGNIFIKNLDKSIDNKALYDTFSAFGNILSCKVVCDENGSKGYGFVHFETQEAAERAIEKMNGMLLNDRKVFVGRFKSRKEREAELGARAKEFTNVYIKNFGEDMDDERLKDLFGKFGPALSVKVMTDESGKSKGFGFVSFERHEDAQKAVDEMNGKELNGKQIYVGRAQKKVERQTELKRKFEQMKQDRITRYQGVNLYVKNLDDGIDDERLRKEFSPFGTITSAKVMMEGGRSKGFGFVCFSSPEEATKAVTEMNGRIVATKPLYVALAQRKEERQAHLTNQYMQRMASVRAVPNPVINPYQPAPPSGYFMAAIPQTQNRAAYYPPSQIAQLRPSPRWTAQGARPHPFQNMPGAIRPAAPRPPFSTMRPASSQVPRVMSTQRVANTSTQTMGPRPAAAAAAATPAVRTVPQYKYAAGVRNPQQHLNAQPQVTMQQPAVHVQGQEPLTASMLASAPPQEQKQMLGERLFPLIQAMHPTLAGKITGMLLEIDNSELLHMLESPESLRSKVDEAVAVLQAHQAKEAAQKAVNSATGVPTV
# Env fusion inh = HIV envelope-mediated fusion inhibition | hit rate 1.1% among 360,000 | inhibition, % at 12.3 µM | AID 651610 | HeLa-JRFL Env/CEM21 cell fusion, luciferase;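 active means mean replicate inhibition score of at least 50 and every replicate individually at or above 50; inconclusive means only one of the two criteria met; inactive means mean below 50 and not all replicates reaching 50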;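 further: 0% = plate neutral controls and 100% = maraviroc near 300 nM; one replicate is shown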
# Yeast UUG start = modulators of start codon recognition fidelity in yeast. S. cerevisiae UUG-firefly luciferase reporter, luminescence/redox ratio. activity score, % at 18.7 µM. hit rate 0.13% among 350,000;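 active means replicate mean at a twofold rise or more, about +100% in these data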;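 further: firefly luciferase made from a UUG start codon reports start codon fidelity; reporter light over untreated wells divided by growth signal over untreated wells; some hits fall short of that in this replicate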
# Rce1 inhib = yeast Ras-converting enzyme inhibition. yeast membranes, quenched prenylated peptide cleavage fluorescence. calls only. hit rate 0.27% among 290,000;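 active means fall in fluorescence gain of 50% or more versus controls, with final raw signal at or below 3038400; inconclusive means same 50% fall but final raw signal above 3038400; inactive means fall in fluorescence gain under 50%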;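 further: plate controls were neutral control wells for no effect and wells lacking membranes for full effect; tested at 10 µM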
# MT1-MMP act inh = MT1-MMP (human) activation inhibition | P50281 | HT1080 RFP-PRO-GFP cells, GFP/RFP ratio fluorescence, overnight; percent of plate control window, DMSO zero | GFP/RFP ratio change, % at 20 µM | hit rate 0.061% among 360,000 | AID 651647;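 active means GFP/RFP ratio change of at least 30% with cell ATP level not reduced by more than half and red fluorescence within 50% of control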; further: strong numbers were not always called active
#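 Read-out: GFP/RFP fluorescence ratio; Test system: RFP-PRO-GFP reporter HT1080 cells; Compound dosing: single-point 20 µM compound, 1% DMSO; Times: overnight compound exposure at 37 °C.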
# eIF4H inh = inhibitors of RNA binding by human eIF4H; Q15056; eIF4H fluorescence polarization binding assay; inhibition, % at 35 µM; hit rate 0.94% among 290,000; AID 2012;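 active means 50% or more with normal probe brightness, or confirmed in later tests; inconclusive means above 50% with abnormal brightness, or retests that disagree; inactive means below 50% or failed in later tests; about a fifth of its hits are not listed in these tables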;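 further: calls also rest on retests at 20 µM and on dose response follow-up; 0% = protein and probe with vehicle and 100% = probe without protein; strong numbers were not always called active; many hits fall short of the cut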
# eIF4H inh retest = also measured in eIF4H inh; calls as there; inhibition, %; compound at 20 µM; confirmation average;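 mean of two retest wells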
# PABP FP inh retest = second read-out of PABP FP inh, no call of its own (marks repeat the call); inhibition, %; compound at 20 µM; confirmation repeats;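 mean of two retest wells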
# MT1-MMP act inh RFP = further read-out of MT1-MMP act inh, marked with its call; RFP signal change, %; measured here: RFP expression control read;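 0 = vehicle wells; hits needed this value within 50% of zero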
# Active calls of the source: *; i = inactive; ? = inconclusive; . = no result given; & = joins results of further samples.
SMILES,CSC inhib,PABP FP inh,Env fusion inh,Yeast UUG start,Rce1 inhib,MT1-MMP act inh,MT1-MMP act inh RFP,eIF4H inh,others
COc1ccc(NC2CCCN(C(=O)CCc3cccc(Cl)c3)C2)cc1 (centres undefined),-1.5,3.7,-4.1,-2.7,i,0.8,-0.8,-3.0,
O=C(Nc1cccc(F)c1)c1ccc(S(=O)(=O)N2CCOCC2)cc1,-12.6,4.5,-5.4,-9.2,i,6.2,3.9,-0.2,
CCOC(=O)c1cccc(C(=O)Oc2ccccc2)n1,-4.2,0.1,.,-7.5,i,17.3,1.2,-6.6,
Cc1ccc(NC(=O)Nc2ccnc(-c3cccnc3)n2)cc1,30.0,-0.4,-183.7,.,.,-1.9,2.2,-3.0,
CCc1cc(-c2n[nH]c(C)c2-c2nc3ccccc3n2C)c(O)cc1O,48.7,-5.9,10.1,-1.3,i,0.8,-1.1,2.3,
CC(=O)c1cc2c(cc1N/C(=N/S(=O)(=O)c1ccccc1)c1ccc(Cl)cc1)OCO2,13.9,-9.0,-70.7,-16.6,i,-11.4,-8.6,63.2,eIF4H inh retest=-0.4;PABP FP inh retest=13.4
COc1cccc(/C=C/C(=O)OCC(=O)Nc2nnc(-c3ccccc3)o2)c1OC,.,.,1.4,-19.6,.,4.9,6.0,.,
CC1CC(C)CN(C(=O)c2ccc3ccccc3c2)C1 (centres undefined),-3.5,.,4.6,.,i,3.6,-5.8,.,
COc1ccc(C2/C=C\CN3CCC[C@H]3C(=O)N2Cc2ccc(F)cc2)cc1 (some centres undefined),.,.,14.5,17.8,.,-6.5,0.5,.,
CCCCCCSc1cc(C)nc2ncnn12,-12.0,6.2,-25.3,-24.1,i,-6.3,-12.4,-4.3,
Cc1noc(C)c1CSCC(=O)Nc1nnc(CC(C)C)s1,9.0,10.0,.,-4.3,i,-1.8,1.7,4.1,
COc1ccc(/C(N)=N/OC(=O)CCCc2ccccc2)cc1OC,13.2,-0.3,3.8,2.3,i,-2.6,-0.4,-2.9,
Cc1ccc(N(C(=O)Cn2nnc(-c3ccc(F)cc3)n2)C(C(=O)NC(C)(C)C)c2ccncc2)cc1 (centres undefined),3.4,0.8,-10.3,8.1,i,-10.7,-7.5,-1.9,
COc1cc2c(cc1OC)-c1nncn1C(C)(C)C2,9.6,-6.9,-27.4,-10.1,i,1.9,0.8,-1.5,
Cc1ccc(C(=O)NC2CC3CCCC(C2)N3Cc2ccccc2)cc1 (centres undefined),1.8,0.1,-0.4,-0.6,i,-1.4,0.8,-2.9,
Cc1cccc(OCC(=O)NCC(=O)n2nc(C)cc2C)c1,16.1,-7.7,.,-5.5,i,2.3,2.3,-7.3,
CCC(=O)c1ccc(O)c(OC)c1,-6.9,3.9,.,-23.5,i,-1.4,-1.3,8.9,
COc1ccc(NC(=O)[C@@H](NC(=O)c2ccccc2F)C(C)C)cc1S(=O)(=O)N1CCOCC1,-2.1,-7.3,4.7,7.2,i,-0.9,0.2,-8.1,
CC(=O)C1=C(O)C(=O)N(c2cccc(C(=O)O)c2)C1c1ccccc1F (centres undefined),.,-4.2,.,-11.0,.,-0.3,5.7,-0.8,
CCCc1nc2ccc(Br)cn2c1Cc1ccccc1OC,.,.,46.1,-21.6,.,-7.8,-19.1,.,
CCCc1cc(=O)[nH]c(Nc2ccc(Cl)cc2)n1,14.3,-2.0,-22.0,.,i,0.0,-11.1,-3.6,
COc1ccc(S(=O)(=O)N2CCN(Cc3cc(OC)c(OC)cc3OC)CC2)cc1,-5.5,17.7,-5.4,-21.0,i,2.5,-3.4,15.0,
CC12CN(NC(=O)c3ccc(Cl)cc3)C3(C#N)CC1CCC23C (centres undefined),.,-15.4,5.4,9.8,i,-3.4,0.8,-2.3,
COc1ccccc1N1CCN(C(=O)/C=C/c2ccco2)CC1,3.3,-11.1,10.9,.,i,-1.4,3.5,26.4,
CCOC(=O)C1C2C=CC3(CN(Cc4ccco4)C(=O)C13)O2 (centres undefined),.,-4.0,.,1.2,i,-2.7,2.1,3.5,
Cc1ccc(C(=O)N/C(=C/c2ccc(N(C)C)cc2)C(=O)NCC2CCCO2)cc1 (centres undefined),-15.3,10.2,-15.5,10.4,i,0.4,0.3,-6.8,
CC(=O)c1c(C)[nH]c(C(=O)Nc2c(C)n(C)n(-c3ccccc3)c2=O)c1C,2.5,-11.2,39.8,-2.7,i,-3.9,-2.4,3.3,
CCn1c(SCC(=O)N(C)C2CCCCC2)nc2cc(S(N)(=O)=O)ccc21,.,.,-0.2,10.2,.,-1.2,-1.7,.,
O=c1nccc(SCc2ccc(Cl)cc2Cl)[nH]1,10.8,7.2,1.7,-12.3,i,-2.9,-3.2,5.3,
CC(=O)Nc1ccc(S(=O)(=O)Nc2nccs2)cc1,.,-6.4,5.2,-11.8,i,-3.5,0.5,8.2,
COc1ccc(OCC(=O)Nc2ccc(NC(=O)c3cccs3)cc2)cc1,7.2,4.9,-8.5,-26.5,i,3.7,-4.2,-11.1,
O=C1Nc2ccccc2/C1=C\c1cccn1-c1ccc(OC(F)(F)F)cc1,21.3,-7.7,-7.9,34.1,i,-0.6,-8.1,2.0,
Cc1ccc(C(=O)NCCCN2CCOCC2)o1,-8.5,7.2,18.7,-27.6,i,1.2,2.9,5.5,
Cc1nccn1S(=O)(=O)c1cc([N+](=O)[O-])ccc1Cl,-11.2,0.2,-1.7,.,i,1.3,4.3,-6.8,
C[C@@H]1C(=O)O[C@@H]2CC34[C@H]5C[C@@H](C(C)(C)C)C36[C@H](OC(=O)[C@@H]6O)OC4(C(=O)O5)[C@@]12O (some centres undefined),1.8,2.9,-12.0,-1.8,i,5.2,6.6,0.1,
CC(C)(O[C@@H]1O[C@H](CO)[C@@H](O)[C@H](O)[C@H]1O)[C@@H]1CC=C(C(=O)O)CC1,-10.8,.,-8.1,-7.8,.,-0.1,3.8,.,
O=C(COC(=O)c1cnccn1)c1ccc(Br)cc1,.,-6.8,-146.6,-24.5,i,1.2,5.8,-12.5,
COc1ccc([C@H]2N[C@]3(CCCN(Cc4ccc(Br)cc4)C3=O)[C@H]3C(=O)N(C)C(=O)[C@@H]23)cc1,.,.,-32.6,-12.8,.,-2.8,-2.1,.,
Cc1ccc(S(=O)(=O)NC2=NCN(CC(=O)O)CN2)cc1,10.0,9.6,-6.4,-3.0,i,0.5,-2.4,1.6,
O=S(=O)(c1cccc(-c2csc(-c3cccnc3)n2)c1)N1CCCCC1,5.7,3.8,33.3,0.7,i,-3.4,-8.2,0.8,
Cc1nnc(NCCO)c2ccccc12,2.4,3.4,.,-19.1,i,-0.6,-3.2,3.2,
CS(=O)(=O)N(Cc1ccc(C(=O)Nc2ccccc2Sc2ccccc2)cc1)c1ccccc1,42.6,-6.7,.,.,i,-5.3,-9.5,-4.0,
Brc1ccc(CSc2nnc3ccccn23)cc1,-2.2,-1.7,2.8,-10.0,i,-1.2,-2.1,0.3,
O=C(CCS(=O)(=O)c1ccccc1)OCC(=O)N1CCN(S(=O)(=O)c2ccc(Cl)cc2)CC1,-2.2,.,-5.2,-15.8,i,0.4,2.2,.,
CCn1nnc(-c2ccccc2NC(=O)c2cc(OC)c(OC)c(OC)c2)n1,-22.3,-7.1,.,-13.9,i,8.1,-1.2,-6.3,
CCOc1ccc2cc(S(=O)(=O)N3CCOCC3)ccc2c1,-15.4,-3.4,.,-6.6,i,-2.1,-1.7,5.6,
COc1ccc(OC)c(C2C(C(C)=O)=C(O)C(=O)N2c2ccc(F)cc2)c1 (centres undefined),-3.4,24.4,-93.7,-7.8,i,-0.1,-1.8,-5.8,
COc1ccc(-c2nn(C)c(=O)c3ccccc23)cc1CNC(=O)C1CCCCC1,-11.7,13.5,23.3,3.5,i,8.8,-7.0,8.7,
CC(C)Oc1cc(F)ccc1-c1cc(C(=O)NCCCn2ccnc2)[nH]n1,.,.,13.7,-8.7,.,4.2,0.0,.,
COc1ccc(C)cc1S(=O)(=O)n1cnc2ccccc21,-8.4,-5.5,4.3,-22.4,.,-1.4,2.9,3.5,

# (continued)
SMILES,CSC inhib,PABP FP inh,Env fusion inh,Yeast UUG start,Rce1 inhib,MT1-MMP act inh,MT1-MMP act inh RFP,eIF4H inh,others
O=C(O)c1ccccc1Sc1ncnc2sccc12,2.3,23.4,-19.2,-8.5,i,-0.5,1.8,15.9,
CSc1cc(CS(=O)(=O)c2ccccc2)nc(-c2ccccc2)n1,-0.8,0.9,-2.1,-0.5,i,-2.1,-0.6,1.8,
COC(=O)Cc1c(C)c2ccc(O)c(CNCc3ccc(OC)c(OC)c3)c2oc1=O,-1.4,0.4,14.6,-1.7,?,1.6,0.4,3.3,
COCCNC(=O)CSc1nc2cc(OC)c(OC)cc2c(=O)n1CCc1ccc(S(N)(=O)=O)cc1,-4.6,-1.5,5.6,6.0,i,-0.7,0.6,-10.6,
O=C(Nc1cccc(C(F)(F)F)c1)C1=CC=CN2CCS(=O)(=O)N=C12,.,.,-2.2,-8.2,.,1.8,-0.6,.,
COC(=O)C1=C(C(=O)c2ccccc2)C(c2cccs2)n2nnnc2N1 (centres undefined),-1.1,0.9,.,-0.8,i,2.3,4.2,-4.3,
O=C(Nc1ccc2c(c1)OCCO2)c1ccc(Cl)c(S(=O)(=O)N2CCOCC2)c1,3.8,-8.3,10.4,-9.9,i,-3.5,-5.7,3.0,
CN(C)c1ccc(NC(=O)CSc2nc3ccccc3c(=O)n2CC2CCCO2)cc1 (centres undefined),2.9,-1.1,-0.7,-44.7,i,-3.8,-2.0,-5.6,
COc1ccc(C(=O)N/C(=C\c2cn(C)c3ccccc23)C(=O)NCCCn2ccnc2)cc1OC,-23.8,8.5,-1.3,.,i,0.7,-1.9,-4.4,
Cc1cccc(C)c1NCc1nnc(SCC(=O)Nc2nc(-c3ccccc3)cs2)n1-c1ccccc1,8.6,3.0,16.2,5.4,i,4.4,1.9,-4.5,
Cc1cc(-c2ccccc2)nc(N(C)C)c1S(C)(=O)=O,-9.3,0.7,-1.0,.,i,0.8,-2.0,-1.8,
CCN(CC)CCCN=C(N)N,-14.7,5.7,15.7,.,i,.,.,-0.6,
CC(O)(C#CCN1CCCC1)c1ccccc1 (centres undefined),4.7,0.3,.,4.8,i,-2.3,0.3,-4.9,
CC(C)C[C@H]1CNC(=S)N1CC1CCCN1C[C@H](CC(C)C)N1C[C@H](Cc2ccccc2)N(CC2CCCCCC2)C1=S (some centres undefined),.,.,-7.1,-18.4,.,-5.2,-16.7,.,
COc1cc(C(=O)OCC(=O)N(CC(C)C)C2CCS(=O)(=O)C2)cc(OC)c1C (centres undefined),3.0,.,-18.3,22.6,.,3.3,1.6,.,
C[C@H](CO)N1C[C@H](C)[C@@H](CN(C)S(=O)(=O)c2ccccc2)Oc2c(NC(=O)NC3CCCCC3)cccc2C1=O,.,.,-26.8,14.5&-1.5,.,0.3,-3.7,.,
O=C(NCCN1C(=O)S/C(=C\c2ccc(Cl)cc2Cl)C1=O)C1=COCCO1,-5.0,.,-156.5,-15.0,i,2.6,-2.7,.,
OC(COc1ccc(OCC(O)CN2CCCCC2)cc1)CN1CCCCC1 (centres undefined),8.7,8.9,-2.9,-10.7,i,2.2,3.8,-3.4,

# Compound activity deposited in PubChem BioAssay by several laboratories.
